Vaccinia Venus = qHTS for Stage-Specific Inhibitors of Vaccinia Orthopoxvirus: Venus Reporter Primary qHTS. Vaccinia virus Venus reporter expression, fluorescence. Potency, µM (titrated, usually from 36.5 µM), without a hit: top-dose activity change, negative = inhibition, most hits filed as inhibitors. hit rate 0.46% among 330,000; active means well fitted inhibition curve with a large enough effect; inconclusive means small, poorly fitted or top-dose-only effect; inactive means no such curve, though single readings can be large or run the other way; tested in A549 cells; note: nearly all actives have a fitted effect of over 30% in size; inactives centre near -10
Vaccinia mCherry = qHTS for Stage-Specific Inhibitors of Vaccinia Orthopoxvirus: mCherry Reporter Primary qHTS | hit rate 0.63% among 310,000 | Vaccinia virus mCherry reporter infection, fluorescence; about a quarter of the inactives have no number | Potency, µM (titrated, usually from 36.5 µM), inactives show top-dose activity change, negative = inhibition, hits mostly inhibitors | AID 720579, 2013; active = well fitted inhibition curve with a large enough effect; inconclusive = small, poorly fitted or top-dose-only effect; inactive = no such curve, though single readings can be large or run the other way; tested in A549 cells; note: nearly all actives have a fitted effect of over 35% in size; inactives centre near -10
Starred values were filed as active, the others as inactive; i = inactive; ? = inconclusive; / = not tested or not shown; & = joins results of further samples; [ ] = another dose, or the depositor's remark. % is set by controls: 0 for no effect and ±100 for the full control effect; potency is the fitted concentration of half-maximal effect.

mol | Vaccinia Venus | Vaccinia mCherry
Cc1c(Cl)ccc2sc(NC(=O)CN3C(=O)c4ccccc4C3=O)nc12 | 6% | 4%
Cc1ccc(NC(=O)CSc2n[nH]c(-c3ccco3)n2)cc1 | -10% | -21%
O=[N+]([O-])c1ccc(N2CCN(CCO)CC2)cc1Sc1ccccn1 | -7% | i
O=C1/C(=C/c2ccc(S(=O)(=O)O)cc2S(=O)(=O)O)CCc2ccccc21 | 6% | 43%[activator]
O=[N+]([O-])c1ccc2n[nH]nc2c1 | -15%&-8% | -6%&-17%
OCC1(CCc2ccccc2)CCN(Cc2ccccc2Cl)CC1 | -9% | -5%
CCCCC1(c2ccc(F)cc2)NC(=O)N(CC(=O)N2CCN(C(=O)c3ccco3)CC2)C1=O (stereo not drawn) | 1% | -14%
O=C(CCC(=O)c1cccs1)NCc1ccccc1Cl | -7% | -14%
COc1ccc(NC(=O)c2ccc3c(c2)C(=O)N(Cc2cccnc2)C3=O)cc1 | -12% | -12%[1.46 µM]
O=S1(=O)N=C(c2ccccc2)c2ccccc21 | 5% | 3%
Cc1ccc(NC(=O)C2=CCN(S(=O)(=O)c3ccc(F)cc3)CC2)cc1 | -17% | 6%
CCc1ccc(-n2c(=O)c3cccnc3n2CC(=O)Nc2cc(F)ccc2F)cc1 | -7%[7.34 µM] | -11%[7.34 µM]
CC1(C)NCCN2C(=O)CSC21 (stereo not drawn) | 0% | -5%
COc1ccccc1CNC(=O)COC(=O)CSc1ccc(F)cc1 | -17% | i
O=C(CN1CCN(C(=O)c2ccco2)CC1)N1CCc2[nH]c3ccccc3c2C1 | -1% | -6%
CSc1ccc(CN(C)CC(=O)Nc2ccc(NC(C)=O)cc2)cc1 | -6% | i
O=[N+]([O-])c1cccc(/C=C/c2nc[nH]c2[N+](=O)[O-])c1 | -4% | -27%
CSCCC(NC(=O)c1ccccc1Cl)C(=O)N1CCN(C(C)=O)CC1 (stereo not drawn) | -2% | -16%
CN(C)CCCSC(=N)N | ? | ?
O=C(COC(=O)C1CCN(S(=O)(=O)c2ccc(Cl)c(C(F)(F)F)c2)CC1)NCC1CCCO1 (stereo not drawn) | -13% | -2%
O=C(CCCCCC(=O)N(CCO)CCO)N(CCO)CCO | -9% | -12%
CC1=NN(C(=O)Cc2ccc([N+](=O)[O-])cc2)C(O)(c2ccccc2)C1 (stereo not drawn) | -4% | -4%
Nc1[nH]c(C(=O)c2ccccc2)c(-c2ccccc2Br)c1C(=O)NCc1ccc(-c2ccccc2)cc1 | -8% | -12%
COc1ccc(CNC(=O)CCc2c(C)nc3nc(CNC(=O)OC(C)(C)C)nn3c2C)cc1 | 1% | 2%
COc1cc(C(C)=O)ccc1OCC(O)CN1CCN(c2ccccn2)CC1 (stereo not drawn) | 1% | -7%
O=c1c[n+]([O-])c2ccccc2n1OCc1ccccn1 | 10% | -7%
O=c1[nH]cc(CCc2ccccc2)c(=O)[nH]1 | -10% | -9%
CCOC(=O)c1ccc(CN(Cc2ccccc2C)S(=O)(=O)c2ccc(F)c(C)c2)cc1 | -11% | -5%
CC(C)CN(C(=O)COC(=O)c1c(Cl)ccc(Cl)c1Cl)C1CCS(=O)(=O)C1 (stereo not drawn) | -18% | -6%
Fc1ccc(C(c2nnnn2C2CCCC2)N2CCN(Cc3ccccc3)CC2)cc1 (stereo not drawn) | -9% | i
CC(=O)c1ccccc1OC(=O)c1ccc([N+](=O)[O-])o1 | -11% | -22%
CCNC(=O)O/N=C(\C)c1sc(-c2ccccc2)nc1C | -15% | -7%
COc1cc(C(=O)NCCOc2ccc(Cl)cc2)ccc1OCc1c(C)noc1C | -25% | -16%
Cc1cc(=O)n(C)c2ccccc12 | -10% | i
COc1ccc(OCC(O)CN(C)C(=O)/C=C/c2cccc([N+](=O)[O-])c2)cc1 (stereo not drawn) | 6% | -20%
COc1ccc(CNc2nc(C)cc(C)c2C#N)cc1 | -20% | -4%
COC(=O)c1ccc2nc(-c3ccc(C)cc3)c(Cc3ccc(OC)cc3C)n2c1 | -2% | -7%
COc1ccc(N2CCN(c3cncc(C)n3)CC2)cc1 | -4% | 1%
COc1ccc(S(=O)(=O)Nc2cccnc2)c(C)c1C | -8% | i
COC(=O)c1ccccc1NC(=O)C1CCCC1 | -15% | -20%
O=C(OC1Cc2c(O)cc(O)cc2OC1c1cc(O)c(O)c(O)c1-c1c(C2Oc3cc(O)cc(O)c3CC2OC(=O)c2cc(O)c(O)c(O)c2)cc(O)c(O)c1O)c1cc(O)c(O)c(O)c1 (stereo not drawn) | 14% | i
O=C(CC1Sc2ccccc2NC1=O)NNc1ccc(Cl)cc1Cl (stereo not drawn) | ? | 4.5µM*
COC(=O)C1=C(C)N(CCCC(=O)O)C(=O)NC1c1ccc(C(F)(F)F)cc1 (stereo not drawn) | 5% | i
COc1ccc(CCNc2ccc(C(CC(N)=O)NC(=O)c3cc(OC)ccc3OC)cc2[N+](=O)[O-])cc1 (stereo not drawn) | -20% | -14%
Cc1ccccc1CSc1ccc2nnc(-c3ccccn3)n2n1 | -6% | i
COc1ccccc1N(CC(O)CN1CCC(C)CC1)S(=O)(=O)c1ccccc1 (stereo not drawn) | 3% | -2%
Cc1ccc(-c2cn(-c3ccc(SC(F)F)cc3)c3[n+]2CCC3)cc1 | -18% | -11%
CC1=NN(c2ccccc2)C(=O)/C1=C/c1ccc[nH]1 | 0% | -12%
CCCC[C@H]1COCCS(=O)(=O)N1Cc1ccc(C)cc1 | 2.2µM* | ?
Cc1ccc(Cc2c(C3CCCCC3)nc3c4ccccc4ccn23)cc1 | -5% | 13%
CCCCN(CC)C(=O)Cn1c(=O)n(-c2ccc(OCC)cc2)c(=O)c2c3c(sc21)CCCC3 | -7% | -16%
COC(=O)c1ccc(NCc2cc(O)ccc2O)cc1O | 2% | -23%
OCC1OC(n2cnc3c(Cl)ncnc32)C(O)C1O (stereo not drawn) | 13% | -24%
O=C(CCC(=O)Nc1cccc2ccccc12)N/N=C/c1ccco1 | -5% | -16%
O=C(O)CCc1ccc(-c2ccc(F)cc2)n1CCC(=O)O | -11% | i
COc1ccc(C(=O)N(Cc2sccc2C)C2CCS(=O)(=O)C2)cc1Cl (stereo not drawn) | -7% | -16%
O=C(CN1C(=O)/C(=C\c2ccccc2Cl)Oc2ccccc21)NCc1cccnc1 | -11% | i
CC(C)c1ccc(NS(=O)(=O)c2cc(Br)cc3c2N(C(=O)C2CC2)CC3)cc1 | ? | ?
CCc1cccc(C)c1N(C(=O)CCl)C(C)COC (stereo not drawn) | 0% | i
Cc1ccc2c(c1)C(=O)OC(C(=O)Nc1ncc(Cc3ccc(Cl)cc3)s1)C2 (stereo not drawn) | 8% | 7%

Molecules from the list above that have bromine (2):
mol | Vaccinia Venus | Vaccinia mCherry
Nc1[nH]c(C(=O)c2ccccc2)c(-c2ccccc2Br)c1C(=O)NCc1ccc(-c2ccccc2)cc1 | -8% | -12%
CC(C)c1ccc(NS(=O)(=O)c2cc(Br)cc3c2N(C(=O)C2CC2)CC3)cc1 | ? | ?

Other records
mol | Vaccinia Venus | Vaccinia mCherry
CCOc1ccc(C(=O)Nc2cc(C)ccn2)cc1 | 1% | -7%
Cc1cc(C)c(NC(=O)COC(=O)C2CCN(c3ccc(C(F)(F)F)cn3)CC2)c(Cl)c1 | -10% | i
CCOc1ccc(C(=O)N2CCCC(c3nc(-c4cccs4)no3)C2)cc1 (stereo not drawn) | 9% | -9%
COc1ccc(/C=N/NC(=O)c2cc[n+]([O-])cc2)cc1OC | -12% | -7%
CCOc1ccc(CNC(=O)c2ccc(CS(=O)c3ccccc3)o2)cc1 (stereo not drawn) | -4% | -9%
Clc1ccc(CSc2nnc(CN3CCOCC3)n2-c2ccccc2)cc1Cl | ? | ?
CCCCCn1nc(C(=O)OCc2nnc(-c3ccccc3)o2)c2ccccc2c1=O | -5% | i
O=C(Nc1ccc(Br)cc1)c1cccc(N2C(=O)C3CCCCC3C2=O)c1 (stereo not drawn) | -17% | i
CN(CC(=O)Nc1c(Cl)cccc1Cl)C(=O)c1ccncc1 | -4% | -9%
CN(CC(=O)Nc1ccc(F)c(F)c1F)C(=O)CCN1C(=O)C2CCCCC2C1=O (stereo not drawn) | -5% | -12%
O=C(N1CCCCCC1)N1CCN(S(=O)(=O)N2CCCCC2)CC1 | -4% | /
COC(=O)c1cccc(Cn2nnc3ccccc3c2=O)c1 | -9% | /
CCCCOc1ccc(C(=S)N2CCC(C(N)=O)CC2)cc1 | -12% | i
CCN(CC)C(=O)CSc1nc2ccccc2c(=O)n1CC1CCCCC1 | -28% | /
O=C(NCC1(N2CCCCC2)CCCC1)c1cnn(-c2nccc(-c3cccs3)n2)c1C1CC1 | 10% | -1%
CCOC(=O)C1=CC(=C2C(=O)N(CC)C(=S)N(CC)C2=O)c2ccccc2O1 | 11% | i
COc1ccc(CCNC(=O)CSc2n[nH]c(N)n2)cc1 | 0% | ?
CCOC(=O)C1=C(N)Oc2cc(C)n(CCc3ccc(OC)c(OC)c3)c(=O)c2C1c1cccnc1 (stereo not drawn) | -21% | /
CCOC(=O)N1CCC(NC(=O)c2cc3c(-c4ccc(Cl)cc4)nn(C)c3s2)CC1 | ? | 9%
CCCCOC(=O)/C=C\C(=O)OCCCC | 0% | 17%
Cc1ccc(-c2noc(CCC(=O)NC3CC3)n2)cc1 | 5% | 46%[activator]
C[Se]C[C@@H](N)C(=O)O | -15% | -4%
CC(C)(C)NC(=O)C(=O)N/N=C/c1ccc(F)cc1 | -1% | -9%
O=C(c1ccc(Cl)cc1)N1CCCC(c2ccccc2)=N1 | -11% | -15%
CCOC(=O)N1CCN(C(=O)CSc2nnc(COc3ccc(Cl)cc3)o2)CC1 | -2% | -9%
Cn1ncc(C#N)c1/N=C/N1CCOCC1 | -2% | -6%
COc1ccc(Cl)cc1C(=O)Nc1ccc2nc(Nc3cccc(Cl)c3)cc(C)c2c1 | -8% | -11%
N=c1oc2ccc3ccccc3c2cc1-c1nc(-c2ccccc2)cs1 | 0% | -5%
O=C(CNC(c1ccccc1)c1ccccc1)Nc1cc([N+](=O)[O-])ccc1Cl | -14% | -18%
Cc1cc(C(c2nnnn2Cc2ccccc2)N2CCOCC2)c(C)n1-c1ccc2c(c1)OCO2 (stereo not drawn) | -15% | -10%
Cc1cc(/C=C2\C(=O)NC(=O)N(c3ccc(Cl)cc3)C2=O)c(C)n1-c1sc2c(c1C#N)CCCC2 | -2% | 0%
Cc1ccc(C(=O)C[n+]2cc(Br)cc(Br)c2)cc1[N+](=O)[O-] | -1% | -8%
O=C(NCC1CCCO1)c1ccccc1-c1nc(-c2ccccc2)no1 (stereo not drawn) | -20% | /
COCCCN1C(=O)c2ccc(C(=O)OCC(=O)N(CCC#N)c3cc(C)cc(C)c3)cc2C1=O | -18% | -2%
Cc1nc2c(nc1C)C(=O)c1ccccc1C2=O | 4µM* | 3.5µM*
COc1ccc(OC)c(C(=O)Cn2c3[n+](c4ccc(C(F)(F)F)cc42)CCCCC3)c1 | 1% | 4%

Looked up above.
COc1ccc(Cl)cc1C(=O)Nc1ccc2nc(Nc3cccc(Cl)c3)cc(C)c2c1 in Vaccinia mCherry is entered as -11%
Cc1ccc(C(=O)C[n+]2cc(Br)cc(Br)c2)cc1[N+](=O)[O-] in Vaccinia Venus is entered as -1%

2 successive entries already listed, quoted:
mol | Vaccinia Venus | Vaccinia mCherry
CCOC(=O)N1CCN(C(=O)CSc2nnc(COc3ccc(Cl)cc3)o2)CC1 | -2% | -9%
Cn1ncc(C#N)c1/N=C/N1CCOCC1 | -2% | -6%

(more compounds)
mol | Vaccinia Venus | Vaccinia mCherry
COc1ccc(C(=O)Nc2cc(C)nn2-c2ccc(C)cc2)cc1 | -4% | i
CCOC(=O)c1ccccc1NC(=O)COc1ccccc1 | 15% | 7%
Cc1ccc(S(=O)(=O)c2nc(S(C)(=O)=O)sc2N2CCC(C)CC2)cc1 | 0%[7.34 µM] | -17%[7.34 µM]
Cc1cccc(OCC(=O)N/N=C/C=C/c2ccco2)c1 | -1% | -19%
COc1ccc(C(CNC(=O)c2ccc(S(=O)(=O)N3CCCC3)cc2)N(C)C)cc1OC (stereo not drawn) | -1% | -2%
COc1ccc(OC(C)C(=O)NCc2nc(-c3cccc(C)c3)no2)cc1 (stereo not drawn) | -11% | i
COc1ccc2c(c1OC)C(=O)OC2n1c(O)c(N=NC(C)=O)c2ccccc21 (stereo not drawn) | -14% | -8%
CC(CN1CCOCC1)OC(=O)/C=C/c1ccccc1 (stereo not drawn) | -6% | i
COc1ccc(CCNC(=O)COC(=O)c2ccc(N3CCCC3=O)cc2)cc1OC | -4% | -9%
CN1CCN(C(=O)c2ccccc2-c2nc(-c3ccc(Cl)cc3)no2)CC1 | -10% | i
CCOc1ccc(NC(=O)c2ccc(-c3ccccc3)s2)cc1 | 2% | 6%
Cc1cccc(N2CCN(C(=O)c3cc4c(=O)oc5ccccc5c4s3)CC2C)c1 (stereo not drawn) | -4% | 7%
COC(=O)C[C@H]1c2cc(C(F)(F)F)ccc2S(=O)(=O)N1C1CCCC1 | -1%&-16% | -9%
COc1cccc(CN(C)C(=O)CCNC(=O)c2ccc(Br)cc2)c1 | -24% | -22%
CC1(C)CC(=O)CC(C)(C)N1OC(=O)c1ccncc1 | -7% | -7%
Cc1nn(CCCC(=O)NCc2ccccc2Br)c(=O)c2c1sc1ccccc12 | -6% | -7%
COc1ccccc1CNC(=O)c1cccc(N(C)C)c1 | -10% | -23%

High-throughput results as filed in PubChem BioAssay.
